Screening data deposited in PubChem BioAssay by National Center for Advancing Translational Sciences (NCATS).
VDR inh – blocks the human vitamin D receptor; VDR-SRC2-3 peptide fluorescence polarization, 2 h; P11473; Potency, µM, inactives show max response, negative = inhibition, hits mostly inhibitors; 0.93% of 400,000 active; active = well fitted inhibition curve with a large enough effect; inconclusive = small, poorly fitted or top-dose-only effect, or another doubt; inactive = no such curve, though single readings can be large or run the other way; note: series mostly up to about 120 µM
Target sequence (P11473 whole entry, looked up): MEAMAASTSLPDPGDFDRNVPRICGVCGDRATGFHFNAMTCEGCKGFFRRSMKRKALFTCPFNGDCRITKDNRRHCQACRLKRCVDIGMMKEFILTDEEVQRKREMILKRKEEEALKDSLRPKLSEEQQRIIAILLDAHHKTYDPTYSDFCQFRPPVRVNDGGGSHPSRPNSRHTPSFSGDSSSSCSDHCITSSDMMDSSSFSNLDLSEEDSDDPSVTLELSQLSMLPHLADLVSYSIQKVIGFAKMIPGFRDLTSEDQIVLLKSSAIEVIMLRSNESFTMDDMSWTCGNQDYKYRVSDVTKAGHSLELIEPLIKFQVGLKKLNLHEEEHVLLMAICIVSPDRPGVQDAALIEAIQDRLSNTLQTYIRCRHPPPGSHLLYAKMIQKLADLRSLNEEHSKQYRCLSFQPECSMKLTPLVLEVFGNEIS
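Signal is fluorescence polarization, reporting how far test compounds block the interaction of VDR with the SRC2-3 coregulator peptide after a 2 h room-temperature incubation.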
Numbers without * were called inactive; & = joins results of further samples; [ ] = dose if it differs, or a comment. % is set by controls: 0 for no effect and ±100 for the full control effect; potency is the fitted concentration of half-maximal effect.

Cc1c(C(=O)NCc2ccc(F)cc2)sc2nc3n(c(=O)c12)CCC3 was read as VDR inh 8%.
`C=CCn1c2[n+](c3ccccc3c1=O)CCCCC2` gave VDR inh -1%.
For Cc1cc(C)c([N+](=O)[O-])cc1NC(=O)CCS(=O)(=O)c1ccccc1 the results were VDR inh 1%.
For CC(=O)OCC(NC(=O)C1CCCN1C(=O)OC(C)(C)C)C1OC(n2ccc(=O)[nH]c2=O)C(OC(C)=O)C1OC(C)=O (stereo not drawn) the results were VDR inh 7%.
`CC(=O)c1ccc(N2CCN(S(=O)(=O)c3ccc4c(c3)CC(C)N4C(C)=O)CC2)cc1` (stereo not drawn) gave VDR inh 0%.
Screening COc1ccc(S(=O)(=O)N2CCN(c3ncccn3)CC2)cc1 returned VDR inh 2%.
`Fc1ccc(CN2CCCCCCC2)cc1` gave VDR inh 9%.
For CSc1ncccc1C(=O)NCC1CCCCC1 the results were VDR inh -9%.
Screening CCOc1ccc(CCNc2cc(C)nc3ncnn23)cc1OCC returned VDR inh -7%.
Screening CCCSc1nnc(Cc2cc(=O)[nH]c(=O)[nH]2)n1-c1cc(C)ccc1C returned VDR inh 5%.
For COc1cc(OC)cc(C(=O)Nc2ccc(N(C)C)c3ccccc23)c1 the results were VDR inh 6%.
Screening O=[N+]([O-])c1ccccc1S(=O)(=O)N1CCN(c2nc(-c3ccccc3)nc3ccccc23)CC1 returned VDR inh -10%.

Overlap with the part before: 2 entries, followed by the next part.
For COc1cc(OC)cc(C(=O)Nc2ccc(N(C)C)c3ccccc23)c1 the results were VDR inh 6%.
Screening O=[N+]([O-])c1ccccc1S(=O)(=O)N1CCN(c2nc(-c3ccccc3)nc3ccccc23)CC1 returned VDR inh -10%.
`CCCC1OC23CCCCC2C(C#N)(C(=N)O3)C1(C#N)C#N` (stereo not drawn) gave VDR inh 5%.
For Cc1cccc(C(=O)Nc2cc(C)ccc2NC(=O)COc2ccccc2)c1 the results were VDR inh 11%.
CC(=O)N1CCN(C2=NC(=O)/C(=C/c3ccc(OS(=O)(=O)c4ccccc4)cc3)S2)CC1 was read as VDR inh 50µM*.
O=C(Nc1ccc2nc(N3CCOCC3)sc2c1)c1ccc(F)cc1 was read as VDR inh 9%.
For CC(=O)NCCc1nc2cc(NS(=O)(=O)c3ccccc3)ccc2n1C the results were VDR inh -18%.
COc1ccc(S(=O)(=O)Nc2cccc3cccnc23)c(N)c1 was read as VDR inh -19%.
CCCn1cnnc1CNC(=O)C1CCC(=O)N(CCc2ccc(OC)cc2)C1 (stereo not drawn) was read as VDR inh -5%.
For COc1ccc(S(=O)(=O)N2CCC(C(=O)N[C@H](C(=O)NCc3ccncc3)C(C)C)CC2)cc1 the results were VDR inh -9%.
CCOC(=O)c1cnn(-c2cc(Oc3ccccc3)ncn2)c1N was read as VDR inh 5%.
For Nc1nnc(-c2cccc([N+](=O)[O-])c2)s1 the results were VDR inh -17%.
For O=C(CN(Cc1cccs1)C(=O)CNS(=O)(=O)c1ccc(Cl)cc1)NCC1CCCO1 (stereo not drawn) the results were VDR inh 1%.
Screening CN(CCN(C)C(=O)c1[nH]cnc1C(=O)Nc1ccccc1)C(=O)c1[nH]cnc1C(=O)Nc1ccccc1 returned VDR inh -13%.

Gathered by group: those above containing an aryl thioether with sulfur outside any ring.
For CSc1ncccc1C(=O)NCC1CCCCC1 the results were VDR inh -9%.
Screening CCCSc1nnc(Cc2cc(=O)[nH]c(=O)[nH]2)n1-c1cc(C)ccc1C returned VDR inh 5%.

Going on with the list:
`CC1CCCCN1C(=O)c1ccc(S(=O)(=O)N2CCCCC2C)cc1` (stereo not drawn) gave VDR inh 7%.
For CCn1c2ccccc2c2cc(NC(=O)COC(=O)c3ccccc3Br)ccc21 the results were VDR inh 0%.
For O=C1C=C(c2ccnc3cc(Cl)ccc23)C[C@@H](c2ccc3c(c2)OCO3)C1 the results were VDR inh -21%.
Screening Cc1cccn2c(=O)c3cc(C(=O)NCCc4ccccc4)c(=N)n(CCCn4ccnc4)c3nc12 returned VDR inh 11%.
O=C(Nc1ccccn1)C1CCN(C(=O)Nc2ccccc2)CC1 was read as VDR inh -1%.
For Cn1c(=O)[nH]c(=O)c2c1nc(SCCN1CCCCC1)n2CCCc1ccccc1 the results were VDR inh 35µM*.
CC(C)n1c(SCC(=O)Nc2ccccc2)nc2c1c(=O)[nH]c(=O)n2C was read as VDR inh -10%.
CC1CCCC(C)N1C(=O)c1cc(-c2ccco2)on1 (stereo not drawn) was read as VDR inh 18%.
For CCOC(=O)CC(=O)CSc1ccc2nnc(-c3cccc(F)c3)n2n1 the results were VDR inh 1%.
`Cc1cc(C)nc(N/N=C/C2=C(O)CC(c3ccc(F)cc3)CC2=O)n1` (stereo not drawn) gave VDR inh -4%.
`CC1(c2ccc(Cl)cc2)NC(=O)N(CC(=O)N2CCCC2)C1=O` (stereo not drawn) gave VDR inh -11%.
CC(C)CNC(=O)c1cc2nc(C3CC3)cc(C(F)(F)F)n2n1 was read as VDR inh 10%.
Screening CC(C)C(C)NC(=O)CSc1nnc(-c2c[nH]c3ccccc23)o1 (stereo not drawn) returned VDR inh -7%.
`CCc1ccc(CN(Cc2ccco2)c2cnc(S(C)(=O)=O)nc2C(=O)Nc2ccccc2Cl)cc1` gave VDR inh 0%.
`CCN(CC)CCNC(=O)Cn1nc(-c2ccc(C)cc2)ccc1=O` gave VDR inh -3%.
For Cc1ccc(-c2cc(N)n(-c3ccc(C)cc3)n2)cc1 the results were VDR inh -3%&0%.
CCCCNC(=O)Cn1c2c(c(-c3ccccc3Cl)cc1=O)CCC2 was read as VDR inh -14%.
CCOC(=O)c1c(-c2ccccc2)oc2ccc(OCC(O)CNCCN(C)C)cc12 (stereo not drawn) was read as VDR inh -16%.
`O=C(Nc1ccc(Cl)cc1)NC1CCCCNC1=O` (stereo not drawn) gave VDR inh -11%.
Screening COC(=O)c1sccc1S(=O)(=O)N(CC(=O)NCc1ccc(F)cc1)c1ccc(C)c(C)c1 returned VDR inh -6%.
`CCNC(=S)N(CCc1c(C)[nH]c2ccc(C)cc12)Cc1cccs1` gave VDR inh -20%.
For O=C(Nc1nccs1)C1CC(=O)N(c2ccccc2Cl)C1 (stereo not drawn) the results were VDR inh -7%.
`COC(=O)C(C(=O)OC)C1c2ccccc2C=C(C2CC2)N1C(=O)OC` (stereo not drawn) gave VDR inh inconclusive.
`CCOC(=O)C1CCCN(S(=O)(=O)c2nc3nc(C)cc(C)n3n2)C1` (stereo not drawn) gave VDR inh 0%.
COC(=O)c1sccc1NC(=S)Nc1ccc(F)cc1 was read as VDR inh -17%.
Screening C=CCc1cc(Cl)ccc1OCCN(C)C returned VDR inh 5%.
`Cc1cccc(NC(=O)c2ccco2)c1C` gave VDR inh -12%.
Screening Cc1ccc2cc(CCNC(=O)C(C)C)c(=O)[nH]c2c1C returned VDR inh -10%.
Screening COC(=O)c1ccc(-c2sc3nc(N4CCOCC4)c4c(c3c2N)CC(C)(C)OC4)o1 returned VDR inh -8%.
Screening COCCCN1C(=O)c2ccc(C(=O)NCc3ccco3)cc2C1=O returned VDR inh 58%[activator].
Screening O=C(COC(=O)CN=C1NS(=O)(=O)c2ccccc21)Nc1ccccc1OC(F)F returned VDR inh 5%.
CC1(O)N(Cc2ccccc2)C(=O)OC12CCCCC2 (stereo not drawn) was read as VDR inh -11%.
`CCCCn1c(CN(C)Cc2ccccc2)nc2c1c(=O)n(C)c(=O)n2C` gave VDR inh 0%.
`O=C(COC(=O)C1CCC(=O)N1)Nc1cc(Cl)ccc1Cl` (stereo not drawn) gave VDR inh -3%.
`CCc1cc(C(=O)NC(C)C2CCCO2)cs1` (stereo not drawn) gave VDR inh -19%.
`CCCCOC(=O)CSc1nnc(-c2ccc(C)cc2)o1` gave VDR inh -8%.
Screening COc1cc(NC(=O)c2ccccc2)c(C)cc1NC(=O)CC(CC(=O)O)c1ccccc1 (stereo not drawn) returned VDR inh 4%.
`OCC1OC(n2nnc3ccccc32)C(O)C(O)C1O` (stereo not drawn) gave VDR inh 0%.
Screening O=C(NCC1CCCO1)c1ccc2c(=O)n(CC3CCCO3)c(=S)[nH]c2c1 (stereo not drawn) returned VDR inh -12%.
CCCN(C(=O)CSc1nc(C2CC2)n(-c2ccccc2)n1)C1CCS(=O)(=O)C1 (stereo not drawn) was read as VDR inh -5%.
`COc1ccc(CCNC(=O)C(=O)NCC2OCCN2S(=O)(=O)c2ccc3c(c2)OCCO3)cc1` (stereo not drawn) gave VDR inh -7%.
O=C(Cc1ccc(Br)cc1)Nc1ccccc1Sc1ccccc1 was read as VDR inh -1%.
Screening CS(=O)(=O)c1nc(-c2ccc(Br)cc2)n[nH]1 returned VDR inh -10%.
For CCCN(CCC)CCCNC(=O)c1cc2c(=O)n(C)c3ccccc3c2n1C the results were VDR inh 0%.
CCOc1ccc(N2CC(C(=O)Nc3ccc(S(=O)(=O)Nc4nccs4)cc3)CC2=O)cc1 (stereo not drawn) was read as VDR inh -20%.
`Cc1ccc(NC(=O)CSc2nnc(CNC(=O)c3cccs3)o2)c(C)c1` gave VDR inh 9%.
`CC1CN(C(=O)c2ccc(COCC(F)(F)F)o2)CC(C)O1` (stereo not drawn) gave VDR inh -7%.
C#Cc1ccc(CN2CCN(CCc3ccccc3)C(CCO)C2)cc1 (stereo not drawn) was read as VDR inh -19%.

6 compounds picked at random from those above:
O=C(Cc1ccc(Br)cc1)Nc1ccccc1Sc1ccccc1 was read as VDR inh -1%.
CCOc1ccc(N2CC(C(=O)Nc3ccc(S(=O)(=O)Nc4nccs4)cc3)CC2=O)cc1 (stereo not drawn) was read as VDR inh -20%.
`Cc1ccc(NC(=O)CSc2nnc(CNC(=O)c3cccs3)o2)c(C)c1` gave VDR inh 9%.
CCCN(C(=O)CSc1nc(C2CC2)n(-c2ccccc2)n1)C1CCS(=O)(=O)C1 (stereo not drawn) was read as VDR inh -5%.
`CC1CN(C(=O)c2ccc(COCC(F)(F)F)o2)CC(C)O1` (stereo not drawn) gave VDR inh -7%.
For CCCN(CCC)CCCNC(=O)c1cc2c(=O)n(C)c3ccccc3c2n1C the results were VDR inh 0%.

More entries
For Cc1[nH]c2ccccc2c1C(=O)COC(=O)c1ccc([N+](=O)[O-])s1 the results were VDR inh -22%.
Screening CCOc1cc(-c2ccc(OC(=O)c3ccccc3F)cc2)cc(=O)c2c(C)oc(C)c12 returned VDR inh 14%.
For Cc1cc(C)cc(N(CC(=O)NC2CCCC2)C(=O)CCC(=O)Nc2cc(C)on2)c1 the results were VDR inh -5%.
`C/C(CC(=O)C(F)(F)F)=N\NC(=O)/C(C#N)=C/N(C)C` gave VDR inh -3%.
C=CCn1c(SCC#N)nc2c(c1=O)C(C)(C)Cc1ccccc1-2 was read as VDR inh 20%.
For CC(=O)c1c(C)nc(-c2ccc(OCC(=O)Nc3ccc(F)cc3)cc2)n1O the results were VDR inh -8%.
Cc1cccc(C(=O)NNC(=O)C23CC4CC(CC(C4)C2)C3)c1O was read as VDR inh 5%.
For Cc1c(N)cccc1N the results were VDR inh -9%.
`CCCc1nc(SCC(=O)Nc2nnc(SCC)s2)c2c(=O)n(C)c(=O)n(C)c2n1` gave VDR inh -2%.
`CCOC(=O)c1c[nH][nH]c1=O` gave VDR inh 5%.
`CC(=O)N1CCN(CCN(CC2C(C)C=C(C)CC2C)C(C)=O)CC1` (stereo not drawn) gave VDR inh 4%.
`C/C(=N\NC(=O)c1ccc(Cl)c(S(=O)(=O)Nc2ccccc2Cl)c1)c1ccncc1` gave VDR inh 3%.
COc1ccc(-c2nn(-c3ccccc3)cc2C2CC(c3cccs3)=NN2C(=O)CCCC(=O)O)cc1 (stereo not drawn) was read as VDR inh -10%.
`COc1ccc(NC(=O)CSc2nnc(Cc3cccn3C)n2-c2ccc(C)cc2)cc1OC` gave VDR inh -3%.
Cc1ccc(S(=O)(=O)CC(O)COc2ccccc2C#N)cc1 (stereo not drawn) was read as VDR inh -2%.
`NS(=O)(=O)c1ccc(CCNC(=O)c2cccc3ccccc23)cc1` gave VDR inh 11%.
`CCOC(=O)c1cnc(SC)nc1Nc1cccc(F)c1` gave VDR inh -1%.
Screening CC1Cc2ccccc2N1C(=O)CSc1nnc(CNc2ccccc2)o1 (stereo not drawn) returned VDR inh 5%.
Screening O=[N+]([O-])c1cnc(N2CCCCC2)c([N+](=O)[O-])c1 returned VDR inh -15%.
For COc1ccc(C(C(=O)NCC2CCCO2)N(Cc2cccs2)C(=O)c2snc(C(N)=O)c2N)cc1OC (stereo not drawn) the results were VDR inh 12%.
N#Cc1ccc(CN2CC3(CCN(C(=O)c4ccncc4)CC3)C2)cc1 was read as VDR inh -2%.
For O=C(Nc1cc(=O)c2ccccc2o1)N1CCCCC1 the results were VDR inh 3%.
CC1CN(C(=O)N(C)C)CCN1C(=O)N(C)C (stereo not drawn) was read as VDR inh 4%.
`CC1(OC(=O)c2ccco2)C(=O)C2=COC(C3CC3)=CC2=C(Br)C1=O` (stereo not drawn) gave VDR inh -12%.

In the list so far, 3 contain a CF3 group.
CC(C)CNC(=O)c1cc2nc(C3CC3)cc(C(F)(F)F)n2n1 was read as VDR inh 10%.
`CC1CN(C(=O)c2ccc(COCC(F)(F)F)o2)CC(C)O1` (stereo not drawn) gave VDR inh -7%.
`C/C(CC(=O)C(F)(F)F)=N\NC(=O)/C(C#N)=C/N(C)C` gave VDR inh -3%.

Further entries follow.
For O=C(c1ccco1)c1nnn(Cc2ccccc2)c1-c1ccccc1 the results were VDR inh 0%.
For COc1cccc(C2C(C(=O)Nc3ccccc3)=C(C)N=c3s/c(=C/c4ccc(OCC(=O)O)cc4)c(=O)n32)c1 (stereo not drawn) the results were VDR inh -14%.
`S=C(Cc1cccnc1)N1CCOCC1` gave VDR inh inconclusive.
CC(=O)c1ccc(NC(=O)CSc2nnc(N)s2)cc1 was read as VDR inh 9%.
For Cc1ccc(C(=O)c2cc3c(cc2[N+](=O)[O-])OCCO3)cc1 the results were VDR inh 11%.
For COc1cc(C(=O)OCC(=O)Nc2cc(C)on2)ccc1OCc1ccccc1Cl the results were VDR inh -7%.

Not all compounds are listed (hit frequency here may not be typical).
